Sfp inh = Sfp phosphopantetheinyl transferase inhibition; actives 3.5% (n = 310,000); Potency, µM, without a hit: max response, negative = inhibition, hits mostly inhibitors; Q9F4F7; Biochemical Sfp PPTase activity, qHTS; AID 1490; active means well fitted inhibition curve with a large enough effect; inconclusive means small, poorly fitted or top-dose-only effect, or another doubt; inactive means no such curve, though single readings can be large or run the other way;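 further: the enzyme is Sfp with the accession as filed and its product quenches rhodamine fluorescence; potency means the concentration at half of the fitted maximal effect; 0% = enzyme reaction without inhibitor and -100% = no enzyme wells; top concentration of the series not given in the record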
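After 15 min at room temperature with compound, 15 nM Sfp received 5 uM rhodamine-CoA plus 12.5 uM BHQ-2-ybbR (50 mM Hepes pH 7.6, 10 mM MgCl2). Rate came from the fluorescence difference over 30 min, ex 525/em 598 nm.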
Six1-Eya2 blk = blocks human Six1 binding to Eya2; AID 651725; Q15475+O00167; actives 0.56% (n = 360,000); AlphaScreen GST-Six1/His-Eya2 binding, biochemical; active compounds read low; control for the full effect not named in the record; activity change, % (test concentration not listed); in the data active = activity change below about -65%; inconclusive = about -30% to -65%; inactive = above about -30%; further: on the % scale 0 is the no-effect control and ±100 the full control effect
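Compounds are tested against tagged Six1 and Eya2 proteins bridged by glutathione donor and nickel acceptor beads; after a one-hour incubation at 37 °C without light, AlphaScreen emission is recorded.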
D2 agonist = human D2 receptor agonism in beta-arrestin assay. actives 0.084% (n = 360,000). DiscoveRx PathHunter D2 beta-arrestin, luminescence, 90 min; 100% = 57 uM dopamine signal. activation, % (concentration not given with the values); in the data active = activation above about 40%; inconclusive = about 15% to 40%; inactive = below about 15%; further: compound concentration not given in the record; the text of the record calls up to 30% inactive
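DiscoveRx PathHunter D2 beta-arrestin cells (2,100/well) attached overnight, then compound-stimulated 90 min at 37 C in HBSS/10 mM HEPES/0.1% Tween-20 buffer; beta-galactosidase complementation read by luminescence after 1 h at ambient temperature. Dopamine 57 uM final (EC100) as control.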
D2 PAM = human D2 receptor positive allosteric modulation | P14416 | DiscoveRx D2 beta-arrestin cells, luminescence, 90 min; 100% = 57 uM dopamine signal | potentiation, % (no concentration beside the values) | actives 0.23% (n = 360,000) | AID 624464; active = potentiation of 50% or more; inconclusive = 30% to 50%; inactive = 30% or less;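 further: compound concentration not given in the record; tested on top of an EC20 dose of dopamine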
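PathHunter beta-arrestin assay in DiscoveRx D2 cells. Compounds were added with an EC20 of dopamine (50 nM final) for 90 min at 37 deg C. Luminescence was read 1 h after detection reagent, with 57 uM dopamine as the EC100 control.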
PINK1 expr mod = changes PINK1 expression; PINK1 immunofluorescence, high-content cytometry, 24 h; Potency, µM (titrated, usually from 76.6 µM), for the others: top-dose activation (PINK1 increase), hits mostly activators; actives 0.2% (n = 410,000); AID 624263; active = well fitted activation curve with a large enough effect; inconclusive = small, poorly fitted or top-dose-only effect; inactive = flat fitted curve, though single readings scatter; cell line not stated here;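 further: potency means the concentration at half of the fitted maximal effect; % of control where 0% means no effect; nearly all actives have a fitted effect of over 65% in size; a mitochondrial uncoupler was the plate control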
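Decision-based qHTS: stable cells, 24 h exposure to five compound concentrations, CCCP as control. Fixed cells stained for PINK1 plus nuclear, mitochondrial and cell markers, cytometer read.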
CtBP-E1A inh = CtBP/E1A binding inhibition; AlphaScreen GST-E1A/His-CtBP binding, 1536-well; active compounds read low; control for the full effect not named in the record; activity change, % (test concentration not listed); actives 0.49% (n = 340,000); AID 651724; in the data active means activity change below about -65%; inconclusive means about -30% to -65%; inactive means above about -30%; further: on the % scale 0 is the no-effect control and ±100 the full control effect
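Homogeneous bead-based format: GST-tagged E1A captured on glutathione donor beads, His-tagged CtBP on nickel acceptor beads; compounds precede bead addition by 2 h at 37 °C.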
TRPV1 PAM = human TRPV1 potentiation. TRPV1-expressing cells, Fluo-8 calcium influx, capsaicin EC20 potentiation; host cell line not named in the record; control for the full effect not named in the record. potentiation, % at 8.33 µM. actives 0.02% (n = 320,000). AID 540277; active means potentiation above 80%; inconclusive means 30% to 80%; inactive means below 30%; further: 0% is about no effect
Target sequence (Q8NER1 whole entry, looked up): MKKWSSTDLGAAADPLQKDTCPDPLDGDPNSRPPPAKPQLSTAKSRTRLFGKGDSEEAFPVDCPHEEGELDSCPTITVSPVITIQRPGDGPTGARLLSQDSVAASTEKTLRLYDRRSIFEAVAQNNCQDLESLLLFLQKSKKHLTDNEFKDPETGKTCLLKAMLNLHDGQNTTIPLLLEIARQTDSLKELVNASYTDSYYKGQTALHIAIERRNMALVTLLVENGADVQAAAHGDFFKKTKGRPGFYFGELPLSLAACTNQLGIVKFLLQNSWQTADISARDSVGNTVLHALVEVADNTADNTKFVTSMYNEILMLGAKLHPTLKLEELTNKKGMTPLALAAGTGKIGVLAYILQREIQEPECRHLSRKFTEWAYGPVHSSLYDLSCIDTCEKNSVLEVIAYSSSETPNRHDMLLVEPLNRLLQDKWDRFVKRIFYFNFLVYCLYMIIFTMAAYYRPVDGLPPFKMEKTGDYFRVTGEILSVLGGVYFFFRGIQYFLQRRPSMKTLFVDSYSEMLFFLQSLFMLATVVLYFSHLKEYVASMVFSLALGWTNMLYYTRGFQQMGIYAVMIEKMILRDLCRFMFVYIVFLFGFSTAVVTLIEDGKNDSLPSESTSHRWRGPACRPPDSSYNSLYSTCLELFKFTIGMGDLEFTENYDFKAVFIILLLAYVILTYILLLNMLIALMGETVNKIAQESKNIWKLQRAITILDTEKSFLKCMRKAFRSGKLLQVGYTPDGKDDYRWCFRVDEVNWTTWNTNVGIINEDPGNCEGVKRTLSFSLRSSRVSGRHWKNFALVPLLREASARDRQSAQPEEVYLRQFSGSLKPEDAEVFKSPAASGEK
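TRPV1-expressing cells were cultured overnight at 35.5C and loaded with Fluo-8 calcium dye for 40 to 90 min at room temperature. After a 10 s baseline, compound was added and calcium influx was read kinetically for 3 min (ex 480/em 520 nm).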
* hit, by the source's call; ? = inconclusive; nt = not tested or not shown; & = joins results of further samples; [ ] = another dose, or the depositor's remark. Compounds as they come; 3.7% or so of the library scored in one or more.

Each structure is followed by: PINK1 expr mod	Six1-Eya2 blk	D2 agonist	TRPV1 PAM	Sfp inh	CtBP-E1A inh	D2 PAM
> CC1(C(=O)O)CCCN1C(=O)c1cccc(F)c1 (stereo unspecified)
    0.5%	18	-2.8	nt	nt	13	4
> CCCCN(C(=O)Cn1nnc2ccccc21)C(C(=O)NCCOC)c1ccc(OC)cc1 (stereo unspecified)
    -0.5%	2	1.5	15	19%	1	-12
> Cn1c(N)c(C(=O)COC(=O)c2cc(-c3ccccc3)nc3ccccc23)c(=O)n(Cc2ccccc2)c1=O
    0.1%	-1	-3.6	9	3%&3%	1	-1
> CC(=O)c1ccc(NC(=O)Nc2cccnc2)cc1
    1.7%	9	9.3	3	13%	4	7
> Nc1ccn([C@@H]2O[C@H](C(=O)N3CCCN(Cc4ccccc4F)CC3)[C@@H](O)[C@H]2O)c(=O)n1
    -0.3%	0	nt	nt	nt	6	nt
> O=S(=O)(NCc1cccnc1)c1ccc(Br)c2ccccc12
    -0.1%	18	-5.4	0	16%	3	-3
> O=C(CSc1ccc2c(c1)OCCO2)NCCN1C(=O)CSC1=O
    1.1%	5	-0.7	-7	-1%	-8	8
> Cc1csc(NC(=O)CSc2ccccc2F)n1
    -0.9%	2	2.9	-5	12%	18	-12
> Cc1ccc(NC(=O)c2ccc(C)c(S(=O)(=O)N3CCOCC3)c2)nc1
    -0.8%	-7	-1.1	-3	nt	-10	4
> CC(/C=C/C1[C@H](C)C[C@H](O[C@@H]2O[C@H](CO)[C@@H](O)[C@H](O)[C@H]2O)CC1(C)C)O[C@H]1O[C@H](CO)[C@@H](O)[C@H](O)[C@H]1O (stereo partly specified)
    0.4%	4	0.0	11	nt	6	-2
> O=C1Cc2cc(S(=O)(=O)Nc3ccc(F)cc3Cl)ccc2N1
    1.2%	7	8.2	-7	nt	2	0
> OC(c1cccc(Cl)c1)c1ncc(-c2ccc3ccccc3c2)[nH]1 (stereo unspecified)
    21%	-25	-2.4	nt	nt	-22	-7
> Cc1nn(-c2ccccc2)c(N2CCCC2)c1/C=N/NC(=O)C1CC1
    -0.9%	1	-4.9	1	18%	3	-8
> O=C(Nc1ccccc1N1CCCCC1)C1CCN(S(=O)(=O)c2ccccc2C(F)(F)F)CC1
    -3.5%	-5	-3.6	15	nt	-6	-19
> Cc1cccc(NC(=O)C2CCCN(C(=O)NC3CCCCC3)C2)c1C (stereo unspecified)
    nt	2	-3.0	-7	-9%	0	-11
> CCOC(=O)N1CCN(CC(O)c2c[nH]c3ccc(OC)cc23)CC1 (stereo unspecified)
    -2.2%	-1	-1.4	10	-9%	0	-3
> CCOc1ccc(C(=O)Nc2ccc(NC(=O)c3ccco3)c(Cl)c2)cc1Cl
    0.6%	-1	-1.2	9	-13%	3	-12
> COc1ccccc1C(=O)NCCC(=O)N1CCN(c2ccccc2Cl)CC1
    -1.6%	-1	-5.8	11	nt	-19	-11
> CN(Cc1ccccc1)S(=O)(=O)c1ccc2c(c1)CCC(=O)N2
    3.0%	6	-2.7	-12	8%	22	-4
> CC(=O)Nc1ccc(S(=O)(=O)NC2(C(F)(F)F)NC(=O)N(CC(C)C)C2=O)cc1 (stereo unspecified)
    -0.3%	-2	-2.3	-2	-15%	0	-2
> CSc1ccccc1C(=O)Nc1ccc2c(c1)CCC2
    3.3%	6	-0.6	-12	4%	5	2
> NC(=O)CC(NC(=O)Cc1ccc(Br)cc1)c1ccc(NCc2ccc(F)c(F)c2)c([N+](=O)[O-])c1 (stereo unspecified)
    4.1%	-8	-4.3	11	?	-4	-7
> Cc1cccc(N2CCN(S(=O)(=O)c3cc(-c4cc(C)no4)ccc3C)CC2C)c1 (stereo unspecified)
    2.8%	?	-1.3	-4	-2%	?	-12
> COc1ccccc1C(=O)Nc1ccc(NC(=O)c2ccco2)cn1
    1.2%	-8	-0.8	-3	23%	-5	-2
> COc1ccccc1NC(=S)N1CC(C)(C)C1=O
    4.3%	8	3.6	-22	4%	16	0
> CN(C)CCOc1ccc(/C(=C(/CCCl)c2ccccc2)c2ccccc2)cc1
    2.2%	0	-4.2	nt	-28%	0	10
> CC(C)(C)OC(=O)NCCCCCO
    1.2%	10	-1.9	-4	-4%	0	-18
> CCOCc1cn(CC(=O)c2ccc(Cl)cc2)c(C)nc1=N
    0.3%	6	-2.6	11	15%	-10	-18
> COc1ccc(S(=O)(=O)Nc2nc3ccccc3s2)cc1OC
    6.1%[38.3 µM]	2	0.3	9	23%	10	3
> Cc1ccc(OCCNC(=O)CNC(=O)c2ccc(Cl)c([N+](=O)[O-])c2)cc1
    0.3%	-6	-0.2	nt	nt	nt	-13
> CC12C(=O)N(Cc3ccccc3)C(=O)C1C1C=CC2C1 (stereo unspecified)
    -0.4%	8	0.2	2	13%	1	4
> COc1cc(/C=C/C(=O)O)ccc1OS(=O)(=O)c1cc(Br)ccc1C
    -0.4%	18	1.9	6	nt	nt	8
> CC(C)OCCCNc1ncnc2c1nc1n2CCCC1
    1.5%	-3	-2.2	4	10%	3	-3
> C=CCn1cc(C(=O)NCc2ccc(Cl)cc2)c(=O)c2cc(S(=O)(=O)N(CC)CC)ccc21
    0.5%	15	-4.3	13	24%	-1	-24
> Cc1ccc(S(=O)(=O)N2CCC(=O)N(CCOC(=O)Nc3cc(C)cc(C)c3)CC2)cc1
    -0.1%	5	-2.5	4	-2%&17%	-4	-12
> COCCn1c(SCc2ccc(C(=O)OC)o2)nc2cc(Cl)ccc2c1=O
    -1.4%[38.3 µM]	-3	-2.2	1	-9%	5	-13
> COc1cc(/C=C(\C#N)c2nc3ccccc3o2)ccc1O
    7.2%	?	-6.9	-4	-28%	-22	-15
> Cc1ccc(/C=C/S(=O)(=O)NCC(=O)O)cc1
    5.0%	6	4.4	4	9%	-10	10
> CC(C)(C)Cc1c(-c2ccc(Cl)cc2)nc2c(Cl)cc(C(F)(F)F)cn12
    ?	9	-4.1	nt	nt	11	-4
> Cc1ccc(N2C(=O)C3C4C=CC(CNC(=S)Nc5ccc(Cl)cc5)(O4)C3C2=O)cc1 (stereo unspecified)
    0.6%	-4	-6.2	-16	40µM*	-11	0
> COc1cccc(C2/C(=C(\O)c3ccc4c(c3)OCCO4)C(=O)C(=O)N2CC2CCCO2)c1 (stereo unspecified)
    -0.6%	7	-3.8	1	3%	2	-13
> COc1cc2c(cc1OC)CN(S(=O)(=O)c1cccc(F)c1)CC2
    1.1%	-9	-0.1	2	5%	-2	-16
> Cc1ccc(-c2nn3c(C)nnc3c3ccccc23)cc1S(=O)(=O)N(C)CCO
    9.0%	-1	-3.8	8	33%[activator]	-13	-13
> COC(=O)C1=C(NC(=O)COc2ccc3ccccc3c2)CCS1
    9.1%	-12	-1.9	0	7%	-5	-3
> Cc1ccc(C(=O)NNS(=O)(=O)c2ccccc2[N+](=O)[O-])cc1
    -4.3%	3	2.5	-7	-18%	12	-1
> O=C(CSc1ccc(Cl)cc1)N/N=C/c1ccc([N+](=O)[O-])o1
    ?	-2	4.7	0	-27%	-4	-1
> CCOC(=O)c1c(C)c(C(=O)NCC2CCCO2)c(C)n1C (stereo unspecified)
    -3.8%[38.3 µM]	-3	-0.5	?	8%	-5	-1
> Nc1ccc(Oc2ccc3c(c2)C(=O)NC3=O)cc1
    1.2%	4	2.2	-8	3%	nt	-1
> COC(=O)CNC(=O)c1ccc(OC2CCN(C(=O)C3CC3)CC2)cc1
    1.4%	-3	-2.3	4	19%	3	-2
> CC(C)(C)C(=O)NC(=S)Nc1ccc(S(=O)(=O)Nc2nccs2)cc1
    -0.9%	4	-2.5	0	-8%	-22	-1
> Cc1cc(C)cc(OCC(=O)OCC(=O)N(CC(C)C)c2c(N)n(Cc3ccccc3)c(=O)[nH]c2=O)c1
    1.1%	-10	-4.3	0	nt	1	-6
> Cc1noc(C)c1CSc1nnc(-c2ccccc2)n1N
    -0.7%	-7	-1.4	-2	32µM*	0	-10
> COCc1nnc(NS(=O)(=O)c2ccc(Cl)cc2)s1
    1.9%	-15	-1.3	-17	12%	3	-2
> COC(=O)COc1cccc(NC(=O)c2ccccc2)c1
    26%[38.3 µM]	2	0.7	-13	20%	2	-8
> Cc1cccn2cc(-c3ccc(NC(=O)Cc4ccccc4)cc3)nc12
    20%	3	2.3	8	9%	1	1
> CCCCN=C(Nc1ccc(Cl)cc1)c1cccnc1
    nt	0	-2.7	-10	12%	2	-49
> CCCCCCSc1ccc(-c2nc3ccc(Cl)cn3c2NCc2ccccc2)cc1
    0.1%	2	1.7	nt	nt	7	-4
> CS(=O)(=O)N(CC(=O)O)c1ccc(C23CC4CC(CC(C4)C2)C3)cc1
    -1.0%	6	-4.3	-12	14%	-3	-3
> COc1cc(NC(=O)COc2ccc3c(C)cc(=O)oc3c2C)cc(OC)c1OC
    1.0%	17	0.2	-4	-5%	2	-6
> CN1CCN(NC(=O)c2ccc(S(=O)(=O)N3CCCCCC3)cc2)CC1
    5.7%	-1	-4.4	-4	12%	13	-5

Next part
Each structure is followed by: PINK1 expr mod	Six1-Eya2 blk	D2 agonist	TRPV1 PAM	Sfp inh	CtBP-E1A inh	D2 PAM
> O=C1C2C3C=CC(C3)C2C(=O)N1CCCO (stereo unspecified)
    -0.7%	1	-3.9	1	-27%	-1	-2
> Cc1cccc(C)c1OCC(=O)N1CCc2ccccc2C1
    2.0%	23	-4.4	?	4%	-2	-6
> O=Cc1cn(-c2ccc(F)cc2)c2ccccc12
    1.1%	4	-3.9	-1	-1%	-3	-28
> O=C(CSc1cccc[n+]1[O-])NC(=O)c1ccc(OC(F)F)cc1
    1.0%	-11	-2.0	-12	2%	31	1
> CCOC(=O)c1ccc(N2C(=O)CC(N3CC(C)OC(C)C3)C2=O)cc1 (stereo unspecified)
    -4.2%	7	-1.5	5	12%	3	0
> COC(=O)[C@]12CCCCC=C1N(Cc1cccc3ccccc13)C(=O)[C@H](CC(=O)N1CCSCC1)C2
    0.3%	-11	nt	nt	nt	-15	nt
> Cc1ccc(S(=O)(=O)N2CCN(C(=O)CN3CCCCC3)C2)cc1
    -1.6%	8	0.8	4	4%	-6	-17
